From PubChem BioAssay
Ecoli rRNA inh – inhibits bacterial ribosomal RNA function over humanized ribosomes; 1.6% of 350,000 active; GFP signal change (wild-type ribosome), % (no concentration beside the values); E. coli WT GFP vs humanized-ribosome RFP mutants, fluorescence, 24 h; active compounds read low; DMSO median 0, no signal -100;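 active = significant combined selectivity score with lowered wild-type GFP, culture density cut under 30%, mutant RFP and density less affected; inactive = any of these conditions unmet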; also: one replicate is shown; some compounds called inactive have numbers as strong as hits
FGF22 binding – FGF22 (human) thermal shift binding; AID 651658; Q9HCT0; calls only at 9.99 µM; 1.5% of 340,000 active; recombinant FGF22 thermal shift, SYPRO orange fluorescence; percent of sucrose octasulfate shift, DMSO zero;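 active = melting point raised past a set limit in the mean and every replicate; three in four hits are not shown here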
Target sequence (Q9HCT0 whole entry, looked up): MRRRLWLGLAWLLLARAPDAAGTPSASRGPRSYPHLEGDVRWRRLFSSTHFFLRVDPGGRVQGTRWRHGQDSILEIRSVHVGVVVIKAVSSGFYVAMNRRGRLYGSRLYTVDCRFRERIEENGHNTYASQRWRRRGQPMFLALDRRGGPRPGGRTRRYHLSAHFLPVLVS
AF4-AF9 inh – inhibitors of human MLL-AF4/AF9 interaction | P42568 | AlphaScreen, biotin-AF4 peptide binding to FLAG-AF9 | inhibition, % at 10 µM | 0.47% of 350,000 active | AID 651704;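 active = every replicate reaching a set inhibition limit, whatever the replicate mean, cut at about 25% in these data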;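 also: 0% = plate neutral control median and 100% = total signal loss; the record names both 10 and 1 µM as test concentration; the first replicate is given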
Target sequence (P42568 whole entry, looked up): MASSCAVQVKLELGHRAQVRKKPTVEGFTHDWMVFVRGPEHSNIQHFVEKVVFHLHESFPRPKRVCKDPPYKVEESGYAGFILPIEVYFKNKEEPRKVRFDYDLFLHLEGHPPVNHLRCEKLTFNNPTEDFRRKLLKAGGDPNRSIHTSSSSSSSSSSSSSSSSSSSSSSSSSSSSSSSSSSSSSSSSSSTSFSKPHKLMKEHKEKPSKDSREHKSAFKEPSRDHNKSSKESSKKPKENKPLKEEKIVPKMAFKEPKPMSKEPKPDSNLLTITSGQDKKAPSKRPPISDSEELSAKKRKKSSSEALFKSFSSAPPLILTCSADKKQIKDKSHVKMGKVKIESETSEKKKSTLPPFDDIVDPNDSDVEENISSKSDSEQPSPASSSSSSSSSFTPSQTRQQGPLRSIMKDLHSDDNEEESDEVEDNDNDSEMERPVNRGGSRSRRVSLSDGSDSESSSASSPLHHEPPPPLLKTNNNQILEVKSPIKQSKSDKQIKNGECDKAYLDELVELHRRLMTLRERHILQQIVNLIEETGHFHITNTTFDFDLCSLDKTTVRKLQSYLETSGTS
Ecoli rRNA inh OD600 – further read-out of Ecoli rRNA inh, marked with its call; OD600 change, %; measured here: OD600 growth;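 optical density of the mix in the first replicate; 0 = DMSO median and -100 = no signal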
Ecoli rRNA inh RFP – recorded beside Ecoli rRNA inh, whose call it bears; RFP signal change, %; measured here: RFP humanized mutant strains;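 first replicate; 0 = DMSO median and -100 = no signal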
* hit, by the source's call; i = inactive; + = active, no number; & = joins results of further samples; ! = not active in a repeat. These rows are one share of the data; rates above refer to the full screens.

Ecoli rRNA inh OD600,Ecoli rRNA inh RFP,Ecoli rRNA inh,FGF22 binding,AF4-AF9 inh,structure
-7&-6,-1.1&-1.2,6&-1,i,-2.5&-6.1,C[C@H]1CN([C@@H](C)CO)C(=O)CCCn2cc(nn2)CO[C@@H]1CN(C)S(=O)(=O)c1ccc(C#N)cc1
-1,0.4,-4,i,-1.5,Cc1ccc(S(=O)(=O)Nc2ccc3c(c2)C(=O)N([C@@H](C)CO)C[C@H](C)[C@H](CN(C)C(=O)Nc2ccc(F)cc2)O3)cc1
14,5.3,4,i,-1.2,O=C(Cn1cnc2c(NCc3ccccc3)ncnc21)NCc1ccc2[nH]ccc2c1
3,-3.0,-3,i,0.4,C[C@H](O)C#Cc1ccc2c(c1)O[C@H](CN(C)Cc1ccncc1)[C@H](C)CN([C@H](C)CO)S2(=O)=O
8,-2.0,6,i,1.2,CC(=O)N1[C@@H](CO)[C@@H](c2ccc(C3=CCCC3)cc2)C12CN(C(=O)C1CC1)C2
-5,0.4,3,i,0.0,CCCNC(=O)N(C)C[C@@H]1Oc2ncc(C#CC3CCCCC3)cc2C(=O)N([C@@H](C)CO)C[C@H]1C
12,-1.8,-4,i,2.3,O=[N+]([O-])c1cccc(COc2ccc(CN3CCCC3)cc2)c1
-65,-9.4,-46,i,-2.0,O=C(NCc1ccccn1)c1ccccc1OCc1ccccc1Cl
-16,16,-12,i,0.3,CC(C)NC(=O)N(C)C[C@@H]1Oc2ncc(C#Cc3ccc(C(F)(F)F)cc3)cc2C(=O)N([C@H](C)CO)C[C@@H]1C
-11,2.4,-3,i,1.0,CCCC(=O)Nc1ccc2c(c1)C(=O)N(C)C[C@@H](OC)[C@H](C)CN(Cc1ccccc1)[C@@H](C)CO2
5,0.3,4,i,-0.2,Cc1ccccc1OCC(=O)OCC(=O)N1CCc2ccccc21
9,-5.0,-2,i,2.9,COc1ccccc1N1CCN(Cc2cc(=O)oc3cc(C)cc(C)c23)CC1
-18,18,-12,i,12,C[C@H]1CN([C@@H](C)CO)C(=O)c2cc(/C=C/c3ccccc3)cnc2O[C@@H]1CN(C)C(=O)c1ccc2c(c1)OCO2
9,-1.2,4,i,0.3,COCC(=O)N1CCC2(CC1)CN(S(C)(=O)=O)[C@@H](CO)c1[nH]c3cc(OC)ccc3c12
5,0.2,3,i,0.5,CN1C(=O)c2cc(NC(=O)C3CCOCC3)ccc2OC[C@H]2O[C@@H](CC(=O)NCc3ccccc3F)CC[C@H]21
-5,2.1,-1,i,-1.0,c1cc(N2CCOCC2)ccc1-c1ccc2nncn2c1
-2&-3&-5,2.1&0.6&4.7,-2&-1&-11,i,1.8&2.2,CO[C@@H]1CN(C)C(=O)c2cc(NC(=O)Nc3cc(F)ccc3F)ccc2OC[C@H](C)N(C(=O)c2ccccn2)C[C@@H]1C
-4,0.6,-4,i,1.5,C[C@@H]1CCCCO[C@H](CN(C)C(=O)Nc2ccc(C(F)(F)F)cc2)[C@@H](C)CN([C@@H](C)CO)C(=O)c2cc(NS(=O)(=O)c3ccccc3)ccc2O1
-15,-3.8,-8,i,-29,C=CCSc1nnc(-c2c[nH]c3ccccc23)n1CC
-64,6.2,-44,i,12,O=C(NCC[C@H]1CC[C@H](NC(=O)c2ccncc2)[C@H](CO)O1)Nc1ccc(Cl)cc1
-17,2.7,-9,i,-1.1,COCC(=O)Nc1ccc2c(c1)[C@H]1C[C@@H](CC(=O)NCc3ccc(-c4ccccc4)cc3)O[C@@H](CO)[C@H]1O2
3,-1.4,-1,i,-2.7,C[C@@H]1CN([C@H](C)CO)C(=O)c2cc(NS(=O)(=O)c3cccs3)ccc2O[C@H]1CN(C)S(C)(=O)=O
-37,1.8,-9,i,4.3,COc1ccccc1NC(=O)N1CC(=O)N2[C@H](CO)[C@@H](c3ccc(C#CC(C)C)cc3)[C@@H]2C1
25,-1.7,9,i,-9.7,C[C@H](CO)N1C[C@H](C)[C@H](CN(C)Cc2ccc(C(=O)O)cc2)Oc2ncc(-c3ccc(C(=O)N(C)C)cc3)cc2C1=O
3,0.7,-1,i,-14,CC(C)N(C(=O)COC(=O)Cn1cnc2ccccc21)c1ccccc1
-36,-7.2,-38,i,-0.2,CCCCn1nnnc1C(c1ccccc1)N1CCc2ccccc2C1 (stereo not given)
-2,-3.9,1,i,7.4,Cc1nc2sccn2c(=O)c1S(=O)(=O)Nc1ccc(N2CCOCC2)cc1
-6,1.0,2,i,0.0,COc1ccc(S(=O)(=O)N(C)C[C@@H]2Oc3ccc(NS(=O)(=O)c4ccc(F)cc4)cc3CC(=O)N([C@H](C)CO)C[C@@H]2C)cc1
7,-1.0,2,i,-2.3,COCC(=O)N(C)C[C@@H]1Oc2ncc(-c3ccccc3F)cc2C(=O)N([C@H](C)CO)C[C@H]1C
-9,-4.5,-16,i,2.5,C[C@@H]1Cn2cnc(C(=O)N[C@@H](Cc3c[nH]c4ccccc34)C(=O)OC(C)(C)C)c2C(=O)N1
-17,-0.8,-6,i,3.4,Cc1cc(C(=O)Nc2cccc3c2O[C@@H](CN(C)Cc2ccccc2)[C@H](C)CN([C@H](C)CO)C3=O)n(C)n1
-2,-1.9,4,i,-3.3,CN1CCCCN2[C@H](C1)[C@H](c1ccc(-c3ccccc3)cc1)[C@@H]2CO
5,0.8,0,i,4.7,Cc1noc(C)c1S(=O)(=O)N(C)C[C@H]1OCCCC[C@@H](C)Oc2ccc(N(C)C)cc2C(=O)N([C@H](C)CO)C[C@@H]1C
7,2.5,8,i,-5.3,COc1ccc(S(=O)(=O)N(C)C)cc1NC(=O)c1ccc(OCC2CCCO2)cc1 (stereo not given)
7,-1.2,2,i,-2.5,C[C@H](CO)N1C[C@H](C)[C@@H](CN(C)Cc2ccc(C(=O)O)cc2)Oc2ccc(N(C)C)cc2C1=O
-1,2.9,-2,i,-22,Cc1noc(C)c1S(=O)(=O)Nc1ccc2c(c1)CC(=O)N([C@@H](C)CO)C[C@H](C)[C@@H](CN(C)Cc1ccc3c(c1)OCO3)O2
1,-1.1,-3,i,4.6,CC(C)NC(=O)N(C)C[C@H]1OCCCC[C@@H](C)Oc2ccc(NC(=O)c3ccncc3)cc2C(=O)N([C@@H](C)CO)C[C@H]1C
-44,5.7,-28,i,8.3,O=C(NCC[C@H]1CC[C@@H](NC(=O)C2CC2)[C@H](CO)O1)Nc1ccc(Cl)cc1
-9,23,0,i,3.9,CN(C)C(=O)c1cccc(-c2cccc(-c3nc(C(=O)NCc4ccccc4)cc4c3[C@@H](CCO)N([S@](=O)C(C)(C)C)C4)c2)c1
-12,13,-12,i,-12,Cc1nc2c(OCCC3CCCCC3)cccn2c1N(C)C(=O)CCC1CCCC1
9,1.9,9,i,2.5,O=[N+]([O-])c1ccc(COc2cccc(CN3CCCCC3)c2)cc1
11,-0.7,15,i,-1.7,CCOC(=O)C1(C)CCN1C(=O)c1ccccc1OC (stereo not given)
0,-0.4,3,i,-1.8,CCCC(O)C#Cc1cnc2c(c1)C(=O)N([C@H](C)CO)C[C@H](C)[C@H](CN(C)S(=O)(=O)c1cccc(OC)c1)O2 (stereo not given in full)
4,-2.6,2,i,-0.8,CCC(=O)N[C@@H]1CC[C@@H](CC(=O)NCC2CCCCC2)O[C@@H]1CO
-1,0.2,-4,i,-0.9,Cc1noc(C)c1NC(=O)Nc1cccc2c1O[C@@H](CN(C)Cc1ccc(C(F)(F)F)cc1)[C@H](C)CN([C@@H](C)CO)C2=O
-15,-5.2,-13,i,-2.5,O=C(CN1C(=O)NC(c2ccccc2)(c2ccccc2)C1=O)NCc1ccccc1
6,-3.1,0,i,-2.1,CN(C)C(=O)C[C@H]1CC[C@H]2[C@@H](COc3ccc(NC(=O)C4CCOCC4)cc3C(=O)N2C)O1
-3,0.0,-2,i,-6.0,CCCN1[C@@H]2c3ccc(-c4ccccc4OC)c(=O)n3C[C@@H]2[C@@H](CO)[C@@H]1C(=O)N1CCCCC1
2,-2.6,1,i,-1.4,CCN(C(=O)COC(=O)C12CC3CC(CC(NC(C)=O)(C3)C1)C2)C1CCCCC1
-1,-0.6,1,i,0.3,COc1ccc(N2CCN(C(=O)c3ccc(S(=O)(=O)N4CCCCCC4)cc3)CC2)cc1

(more compounds)
Ecoli rRNA inh OD600,Ecoli rRNA inh RFP,Ecoli rRNA inh,FGF22 binding,AF4-AF9 inh,structure
8,-1.4,2,i,-0.7,C[C@H]1CN([C@@H](C)CO)C(=O)c2cc(-c3ccc(F)cc3)cnc2O[C@@H]1CN(C)C(=O)Cc1ccccn1
-5,0.6,-2,i,-0.5,CCNC(=O)C[C@@H]1CC[C@H]2[C@H](COc3ccc(NC(=O)c4ccc5c(c4)OCO5)cc3C(=O)N2C)O1
-6,-1.2,0,i,-6.4,COc1cccc(-c2cnc3c(c2)C(=O)N([C@H](C)CO)C[C@H](C)[C@H](CN(C)Cc2ccc(C(=O)O)cc2)O3)c1
-62,5.3,-33,i,-2.5,CC(=O)N1CCCCN2[C@H](C1)[C@H](c1ccc(C#Cc3ccccc3F)cc1)[C@@H]2CO
6,2.2,2,i,3.8,Cn1c(=O)c2cc(S(=O)(=O)NC(C(=O)NC3CCCCC3)c3ccccc3)ccc2n(C)c1=O (stereo not given)
14,1.5,6,i,-3.4,O=C(Nc1c(-c2ccc3c(c2)OCO3)[nH][nH]c1=O)c1ccccc1
11,-3.1,2,i,-15&-2.4,CC(C)CC(=O)N[C@H](C(=O)N[C@H](C(=O)N[C@@H](CC(C)C)[C@@H](O)CC(=O)N[C@@H](C)C(=O)N[C@@H](CC(C)C)[C@@H](O)CC(=O)O)C(C)C)C(C)C
16,-3.4,2,i,0.0,COc1ccc2c3c([nH]c2c1)[C@H](CO)N(S(C)(=O)=O)CC31CN(C(=O)c2ccncc2)C1
-2,0.6,2,i,-4.5,Cc1noc(C)c1NC(=O)Nc1ccc2c(c1)C(=O)N([C@H](C)CO)C[C@H](C)[C@@H](CN(C)C(=O)c1ccccc1)OCCCC[C@H](C)O2
-9.9*!,5.6*!,-18*!,i,0.8&-1.7,C[C@@H]1CN([C@@H](C)CO)S(=O)(=O)c2ccc(Br)cc2O[C@H]1CN(C)C(=O)c1ccccc1
2,7.6,4,i,1.9,CN(C)c1ccc(C=NN2C(=O)CSC2=S)c(Cl)c1
-27,6.6,-8,+,5.3,Cc1ccccc1S(=O)(=O)NCC[C@@H]1CC[C@@H](NC(=O)Nc2cccc(Cl)c2)[C@@H](CO)O1
14,-2.3,5,i,1.2,COc1ccc(CN2C(=O)C(CC(=O)NC3CC3)CC(C(=O)N3CCOCC3)=C2C)cc1 (stereo not given)
4,-3.0,-2,i,-1.8,COCC(=O)N(C)C[C@@H]1Oc2cc(C#Cc3cccnc3)ccc2S(=O)(=O)N([C@H](C)CO)C[C@H]1C
-29,-10,-1,i,-0.8,COc1ccc(N2C[C@H](CSC)[C@@H](CC(=O)Nc3ccc(Br)cc3)C2=O)cc1
-2,-2.0,-3,i,5.2,C[C@H](CO)N1C[C@H](C)[C@H](CN(C)Cc2cccc(C(F)(F)F)c2)Oc2ncc(-c3cc4ccccc4o3)cc2C1=O
4,0.8,0,i,-2.1,C[C@H]1CN([C@@H](C)CO)C(=O)c2cc(NS(=O)(=O)c3cccs3)ccc2O[C@H]1CN(C)CC1CCCCC1

An excerpt from above in order of count of non-hydrogen atoms, rising:
Ecoli rRNA inh OD600,Ecoli rRNA inh RFP,Ecoli rRNA inh,FGF22 binding,AF4-AF9 inh,structure
14,1.5,6,i,-3.4,O=C(Nc1c(-c2ccc3c(c2)OCO3)[nH][nH]c1=O)c1ccccc1
-62,5.3,-33,i,-2.5,CC(=O)N1CCCCN2[C@H](C1)[C@H](c1ccc(C#Cc3ccccc3F)cc1)[C@@H]2CO
-9.9*!,5.6*!,-18*!,i,0.8&-1.7,C[C@@H]1CN([C@@H](C)CO)S(=O)(=O)c2ccc(Br)cc2O[C@H]1CN(C)C(=O)c1ccccc1
16,-3.4,2,i,0.0,COc1ccc2c3c([nH]c2c1)[C@H](CO)N(S(C)(=O)=O)CC31CN(C(=O)c2ccncc2)C1
6,2.2,2,i,3.8,Cn1c(=O)c2cc(S(=O)(=O)NC(C(=O)NC3CCCCC3)c3ccccc3)ccc2n(C)c1=O (stereo not given)
8,-1.4,2,i,-0.7,C[C@H]1CN([C@@H](C)CO)C(=O)c2cc(-c3ccc(F)cc3)cnc2O[C@@H]1CN(C)C(=O)Cc1ccccn1
-6,-1.2,0,i,-6.4,COc1cccc(-c2cnc3c(c2)C(=O)N([C@H](C)CO)C[C@H](C)[C@H](CN(C)Cc2ccc(C(=O)O)cc2)O3)c1
